PABP polyA inh = PABP-poly(A) binding inhibition; 1% of 290,000 active; PABP-poly(A) RNA binding, fluorescence polarization; P11940; inhibition, % at 35 µM; AID 2014;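 active = 50% or more with normal probe brightness, or confirmed in later tests; about a fifth of its hits are not listed in these tables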;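 note: calls also rest on retests at 20 µM and on dose response follow-up; controls were probe without protein and protein plus probe with vehicle; some compounds called inactive have numbers as strong as hits; many hits fall short of the cut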
Target sequence (P11940 whole entry, looked up): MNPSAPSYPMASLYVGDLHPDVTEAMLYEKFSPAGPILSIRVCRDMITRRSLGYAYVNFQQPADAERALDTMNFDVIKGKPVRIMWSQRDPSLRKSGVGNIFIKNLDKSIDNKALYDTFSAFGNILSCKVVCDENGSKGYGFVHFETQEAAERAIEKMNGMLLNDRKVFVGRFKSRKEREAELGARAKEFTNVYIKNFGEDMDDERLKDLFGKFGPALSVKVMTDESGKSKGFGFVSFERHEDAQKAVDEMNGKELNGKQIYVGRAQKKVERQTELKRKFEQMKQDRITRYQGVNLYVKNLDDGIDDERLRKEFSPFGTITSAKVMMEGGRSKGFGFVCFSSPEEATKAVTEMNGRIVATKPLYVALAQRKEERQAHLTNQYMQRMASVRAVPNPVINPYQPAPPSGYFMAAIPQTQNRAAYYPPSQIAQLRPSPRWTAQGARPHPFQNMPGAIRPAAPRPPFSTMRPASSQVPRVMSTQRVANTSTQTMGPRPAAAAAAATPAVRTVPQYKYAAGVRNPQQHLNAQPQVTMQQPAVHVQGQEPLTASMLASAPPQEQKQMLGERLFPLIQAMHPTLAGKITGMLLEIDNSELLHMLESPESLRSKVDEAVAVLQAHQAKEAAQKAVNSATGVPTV
CSC inhib = cancer stem cell inhibition | cancer stem cell-like cells viability, luminescence | inhibition, % at 7.5 µM | 1.1% of 300,000 active | AID 2717;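 active = mean at 75% or more and at least half the replicates too; tested in HMLE shEcad cells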;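 note: 0% = median of negative and 100% = median of positive control wells; the first replicate is given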
MT1-MMP act inh = MT1-MMP (human) activation inhibition; HT1080 RFP-PRO-GFP cells, GFP/RFP ratio fluorescence, overnight; percent of plate control window, DMSO zero; GFP/RFP ratio change, % at 20 µM; 0.061% of 360,000 active; AID 651647;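 active = GFP/RFP ratio change of at least 30% with cell ATP level not reduced by more than half and red fluorescence within 50% of control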; note: strong numbers were not always called active
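system = RFP-PRO-GFP reporter HT1080 cells | dosing = 20 µM single dose, 1% DMSO | timing = overnight cell settling, then overnight compound exposure, 37 °C, 5% CO2 | read-out basis = GFP/RFP fluorescence ratio | controls = DMSO and RFP-L50D-GFP cell wells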
Env fusion inh = HIV envelope-mediated fusion inhibition; HeLa-JRFL Env/CEM21 cell fusion, luciferase; inhibition, % at 12.3 µM; 1.1% of 360,000 active; AID 651610;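 active = mean replicate inhibition score of at least 50 and every replicate individually at or above 50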;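 note: 0% = plate neutral controls and 100% = maraviroc near 300 nM; one replicate is shown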
eIF4H FP inh = inhibitors of RNA binding by human eIF4H | AID 2012 | 0.94% of 290,000 active | inhibition, % at 35 µM | eIF4H fluorescence polarization binding assay;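 active = 50% or more with normal probe brightness, or confirmed in later tests; about a fifth of its hits are not listed in these tables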;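 note: calls also rest on retests at 20 µM and on dose response follow-up; 0% = protein and probe with vehicle and 100% = probe without protein; strong numbers were not always called active; many hits fall short of the cut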
Rce1 inh = blocks yeast Ras-converting enzyme | calls only | yeast membranes, quenched prenylated peptide cleavage fluorescence | Q03530 | 0.27% of 290,000 active;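 active = fall in fluorescence gain of 50% or more versus controls, with final raw signal at or below 3038400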;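 note: plate controls were neutral control wells for no effect and wells lacking membranes for full effect; tested at 10 µM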
Target sequence (Q03530 whole entry, looked up): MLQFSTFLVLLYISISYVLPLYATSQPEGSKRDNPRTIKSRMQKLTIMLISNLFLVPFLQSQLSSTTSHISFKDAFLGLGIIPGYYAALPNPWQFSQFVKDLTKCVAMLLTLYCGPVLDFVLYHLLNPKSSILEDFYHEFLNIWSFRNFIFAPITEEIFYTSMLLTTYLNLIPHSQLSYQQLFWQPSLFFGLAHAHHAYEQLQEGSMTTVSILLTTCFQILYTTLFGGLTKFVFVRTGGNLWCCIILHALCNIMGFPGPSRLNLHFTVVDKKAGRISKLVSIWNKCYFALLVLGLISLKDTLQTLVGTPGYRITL
UUG fidelity = alters start codon recognition fidelity in yeast; S. cerevisiae UUG-firefly luciferase reporter, luminescence/redox ratio; activity score, % at 18.7 µM; 0.13% of 350,000 active; AID 602363;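 active = replicate mean at a twofold rise or more, about +100% in these data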;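 note: firefly luciferase made from a UUG start codon reports start codon fidelity; reporter light over untreated wells divided by growth signal over untreated wells; some hits fall short of that in this replicate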
MT1-MMP act inh RFP = second read-out of MT1-MMP act inh, no call of its own (marks repeat the call); RFP signal change, %; measured here: RFP expression control read;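 0 = vehicle wells; hits needed this value within 50% of zero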
Active calls of the source: *; i = inactive; nt = not tested or not shown; + = active, no number; & = joins results of further samples. Some of the compounds tested. The share of hits here may be higher or lower than overall.

smiles,PABP polyA inh,CSC inhib,MT1-MMP act inh,MT1-MMP act inh RFP,Env fusion inh,eIF4H FP inh,Rce1 inh,UUG fidelity
CCn1cc([N+](=O)[O-])c(C(=O)Nc2c(C)nn(Cc3c(F)c(F)c(F)c(F)c3F)c2C)n1,-10,0,3,3,nt,3,i,nt
COc1cc2cc(C(=O)O)n(C)c2c(OC)c1OC,9,13,1,-3,-42,2,i,-15
Cn1ncc(Cl)c1C(=O)NNC(=O)Nc1cccc2ccccc12,4,-5,4,1,15,-8,i,-9
O=C(Cc1ccc(Cl)cc1)N/N=C1\CCCc2ccccc21,5,8,5,-1,nt,-2,nt,nt
CCCOC(=O)Cc1n[nH]c(=O)[nH]c1=O,0,-11,1,2,nt,2,i,-15
COc1ccc(CNC(=O)/C=C/c2ccc(S(=O)(=O)NCc3ccco3)cc2)cc1OC,1,-4,-2,-6,-15,8,i,nt
COc1ccc(C2C(C#N)=C(N)OC3=C2C(=O)CC(C)(C)C3)cc1Cn1nc(C)c([N+](=O)[O-])c1C (centres undefined),-2,5,-1,6,5,-3,i,nt
O=C(C1COc2ccccc2O1)N1CCN(c2ccccc2F)CC1 (centres undefined),-3,-2,-4,-4,-10,-5,i,-10
CC(C)CC(=O)Nc1nnc(S(=O)(=O)Nc2ccccc2)s1,-7,-9,-4,3,16,-4,i,-7
Cn1c(=O)c2c3c(sc2n2c(SCC(N)=O)nnc12)CC(C(C)(C)C)CC3 (centres undefined),8,-1,3,-1,-30,10,i,-3
CCC(=O)N1CCN(c2ccc(NC(=O)c3cc4ccccc4o3)cc2)CC1,-11,nt,9,-8,nt,0,nt,-10
Cc1nn2c(NCc3ccccn3)cc(C(C)(C)C)nc2c1-c1ccccc1,-17,14,0,-7,12,1,i,-25
Nc1ccccc1Oc1ccc2ccccc2c1,3,52,-6,-6,-23,-3,+,nt
COCCNCC(=O)C12CC3CC(CC(C3)C1)C2,-2,nt,2,0,nt,-7,i,-17
Cc1cc(C)nc(NC(=O)NC(=O)c2ccccc2)n1,8,-7,0,3,15,-5,i,-16

smiles,PABP polyA inh,CSC inhib,MT1-MMP act inh,MT1-MMP act inh RFP,Env fusion inh,eIF4H FP inh,Rce1 inh,UUG fidelity
Nc1ccc(S(=O)(=O)c2cccc(N)c2)cc1,1,-4,7,4,nt,1,i,-15
O=C(COC(=O)CCC(=O)c1ccc(F)cc1)NCCc1ccccc1,nt,-4,0,-1,23,nt,nt,13
CCCN(Cc1nnc(-c2ccccc2Cl)o1)C(=O)c1ccc(C)c(S(=O)(=O)N2CCOCC2)c1,nt,nt,-2,-4,5,nt,i,5
O=C1C=C(c2ccccc2C(F)(F)F)C[C@@H](c2ccc3c(c2)OCO3)C1,nt,39,5,-5,-4,nt,nt,-7
COCCn1c(SCC(=O)NC2CCCC(C)C2C)nc2ccccc2c1=O (centres undefined),nt,nt,0,-2,43,nt,nt,4
COC(=O)C[C@@H]1C[C@H]2c3cc(NC(=O)Nc4ccccc4F)ccc3O[C@H]2[C@H](CO)O1,nt,nt,5,3,-16,nt,nt,-8&25
CC1=C(C(=O)OCc2ccccc2)C(c2ccc(Cl)cc2Cl)NC(=O)N1CCCC(=O)O (centres undefined),-8,2,4,-2,nt,0,nt,-4
O=C(Nc1cccc(C(=O)N2CCCCC2)c1)C1CCCC1,nt,nt,2,5,3,nt,nt,-1
Nc1ccc(C(=O)OCc2nc3ccccc3[nH]2)cc1,-1,-4,7,-3,nt,2,i,-14
O=C(CCC1CCCN(C(=O)c2cc(C3CC3)[nH]n2)C1)N1CCN(c2ccccn2)CC1 (centres undefined),6,8,1,-5,18,-4,i,nt
CCC1(C)Cc2c(sc3nc(SCC(=O)c4ccccc4)[nH]c(=O)c23)CO1 (centres undefined),-3,9,-1,-1,1,-11,i,-22
COc1ccc2nc3oc(C(=O)N4CCC(C(N)=O)CC4)cc3cc2c1,-6,-1,4,-4,-20,8,i,-11
CCOc1ccc(NC(=O)CN2C(=O)COc3ccc(Cl)cc32)cc1,-7,-6,1,3,-20,-11,i,-11
COC(=O)[C@@]1(C)[C@H]2C(=O)N(C)C(=O)[C@H]2[C@H]2CN=C(SCc3ccc(C#N)cc3)N21,nt,nt,4,7,-12,nt,nt,-14
COC(=O)c1[nH]c2cccc(C)c2c1NC(=O)CN1CCCc2ccccc21,19,-12,-10,-1,nt,6,i,4

smiles,PABP polyA inh,CSC inhib,MT1-MMP act inh,MT1-MMP act inh RFP,Env fusion inh,eIF4H FP inh,Rce1 inh,UUG fidelity
CC(=O)C1=C(c2cccc([N+](=O)[O-])c2)N(C(C)=O)n2c(C)nnc2S1,-8,21,-12,-19,5,1,i,nt
CCn1c(=O)c2cc(C(=O)NCCCOC)sc2c2ccccc21,8,31,8,1,-69,-8,i,7
Cc1c(Br)c(=O)[nH]c(=O)n1COCc1ccccc1,5,-7,-2,1,nt,-2,i,-15
CCn1ncc(CNC(=O)c2cccc([N+](=O)[O-])c2)c1C,7,-16,nt,nt,nt,6,i,nt
Cc1cc(C(=O)N/N=C/c2ccco2)c2ccccc2n1,28,11,-1,5,nt,5,i,nt
CC(C)CN(C(=O)CSc1nc(N)cc(N)n1)C1CCS(=O)(=O)C1 (centres undefined),nt,4,-2,2,-6,nt,nt,-19
Cc1cc(C)n(CC(C)NC(=O)c2cc(COc3c(F)cccc3F)on2)n1 (centres undefined),10,-13,0,2,-13,6,i,nt
CCS(=O)(=O)N1CCCC(C(=O)NCc2ccccc2Cl)C1 (centres undefined),-1,6,1,2,nt,2,i,-17
COc1c(C=NNC(N)=O)c(OC)c(OC)c2c1CCO2,nt,nt,-1,1,-7,nt,nt,-34
C=CCOc1ccc(/C=C2\SC(=S)N(N3CCOCC3)C2=O)cc1,-10,0,1,-6,0,5,i,0
COc1ccccc1N1CCN(c2nc(C)nc3c2oc2ccccc23)CC1,15,nt,-3,-17,63*,0,i,-7
CCN(CC)C(=O)/C=C/c1ccccc1,nt,7,1,6,-17,nt,nt,-4
O=C(NCc1ccncc1)C1CCN(S(=O)(=O)c2cc(Cl)ccc2Cl)CC1,-4,-10,-4,-3,-13,-9,i,-8
CCCCc1nnc(SCC(=O)Nc2nccs2)n1C,-6,-1,-1,1,-12,-7,i,-6
O=C(Nc1nnc(S(=O)(=O)Cc2ccc(F)cc2)s1)c1ccccc1F,0,12,2,-2,-5,-1,i,-9

smiles,PABP polyA inh,CSC inhib,MT1-MMP act inh,MT1-MMP act inh RFP,Env fusion inh,eIF4H FP inh,Rce1 inh,UUG fidelity
O=C(Nc1ccc(F)cc1)Nc1ccc(N2CCCC2)c(S(=O)(=O)Nc2ccccc2Cl)c1,-13,-7,-28,-39,22,-6,i,nt
O=C(CCCCC(=O)OCC1CCCO1)OCC1CCCO1 (centres undefined),nt,nt,2,4,-2,nt,nt,10
CCOc1ccc2nc(SCC(=O)c3ccccc3)sc2c1,4,-2,2,-1,nt,0,i,14
N#Cc1cccc(-c2csc(C(O)c3ccco3)n2)c1 (centres undefined),nt,nt,0,7,-27,nt,nt,-6
CCN(C[C@H]1N[C@@](Cc2ccccc2)(C(=O)OC)[C@H]2C(=O)N(C)C(=O)[C@@H]12)C(=O)c1ccc(C(C)(C)C)cc1,nt,nt,2,2,-112,nt,nt,-10
COc1ccccc1N1CCN(C(=O)Cn2nnc(-c3ccncc3)n2)CC1,-4,-11,8,-2,nt,-6,i,-4
CCOC(=O)c1cc2c(nc1N)CCCC2,-2,-3,3,-3,2,0,i,nt
CCOC(=O)NC(NC(=O)OCC)C(=O)c1ccccc1,-5,4,-7,-1,-19,-2,i,-4
CCCC(NC(=O)C(C)Sc1nnnn1C1CC1)c1ccccc1 (centres undefined),nt,nt,-4,0,2,nt,nt,-12
COc1ccccc1C(=O)Nc1ccc(OCC(=O)N2CC(C)OC(C)C2)cc1 (centres undefined),nt,-3,4,1,nt,nt,nt,4
Cc1c(NS(=O)(=O)c2ccc3c(c2)n(C)c(=O)n3C)c(=O)n(-c2ccccc2)n1C,-12,-4,0,0,nt,9,i,-11
CN(C)S(=O)(=O)c1ccc(-c2ccccc2)cc1,2,nt,1,0,nt,-1,i,8
N#CCC(=O)N/N=C/c1cn(Cc2ccc3ccccc3c2)c2ccccc12,0,5,3,-5,6,-3,i,-11
COc1ccccc1CN1CC(C(=O)NCCN2CCOC2=O)CCC1=O (centres undefined),3,nt,2,4,0,1,i,-28
CCCCC#Cc1cncc(C(=O)N/N=C/c2ccccc2)c1,-5,6,-5,2,9,-8,i,nt

Looked up above:
`COc1ccccc1CN1CC(C(=O)NCCN2CCOC2=O)CCC1=O` (centres undefined) | MT1-MMP act inh RFP = 4
`COc1ccccc1C(=O)Nc1ccc(OCC(=O)N2CC(C)OC(C)C2)cc1` (centres undefined) | MT1-MMP act inh = 4

Next entries follow.
smiles,PABP polyA inh,CSC inhib,MT1-MMP act inh,MT1-MMP act inh RFP,Env fusion inh,eIF4H FP inh,Rce1 inh,UUG fidelity
COC(=O)NCC(c1ccc2c(c1)OCO2)N1CCN(c2ccccc2)CC1 (centres undefined),11,-5,1,4,6,6,i,5
Cc1c(-n2c(O)c(C3=c4ccccc4=NC3=O)sc2=O)c(=O)n(-c2ccccc2)n1C,2,-5,-4,0,-1,-8,i,nt
N#Cc1cccc(NC(=O)Cc2ccccc2)c1,-2,-5,-1,-2,5,6,i,nt
COc1ccc([N+](=O)[O-])cc1NC(=O)C1CCCN1S(=O)(=O)c1cccs1 (centres undefined),nt,-6,7,-6,6,nt,i,-7
COc1ccc(Cl)cc1C(=O)NNC(=O)CCNC(C)=O,3,-16,2,6,3,5,i,-11
Fc1ccc(-c2ccnc(=S)[nH]2)cc1,-17,13,-1,1,nt,-5,i,-44
COc1ccc(N(CC(=O)NCc2cccs2)S(=O)(=O)c2cccc(C)c2)cc1,nt,nt,-2,-1,8,nt,nt,1
O=C(NC1CCOC1)c1cc(COc2cccc(C(F)(F)F)c2)on1 (centres undefined),-5,11,-1,-2,-17,-2,i,-15
COc1ccc(S(=O)(=O)NCC(=O)Nc2ccc(F)cc2)cc1,nt,-11,2,5,-4,nt,nt,-10
Cc1c(Cl)cccc1NC(=S)N(Cc1ccccc1)Cc1cccnc1,10,6,0,0,14,2,i,nt
Cc1ccc(S(=O)OCC(=O)Nc2cc(Cl)ccc2N2CCOCC2)cc1 (centres undefined),-12,-6,1,1,-2,-14,i,-4
Nc1nnc(-c2ccc([N+](=O)[O-])o2)s1,nt,nt,-2,-12,28,nt,nt,15
CC(C)c1cc(=O)n2[nH]c(SCc3ccccc3Cl)nc2n1,12,2,-1,0,13,-10,i,-15
CCOC(=O)N1CCN(c2nc(=S)n(-c3ccccc3)c(C)c2C(C)=O)CC1,5,-5,-1,-1,nt,0,i,-5
CCNC(=S)N(CCO)Cc1cc2cc3c(cc2[nH]c1=O)OCO3,1,2,-5,-1,-1,-2,i,-27

smiles,PABP polyA inh,CSC inhib,MT1-MMP act inh,MT1-MMP act inh RFP,Env fusion inh,eIF4H FP inh,Rce1 inh,UUG fidelity
CCc1cccc(CC)c1NC(=O)CSc1nnc(CCC(=O)O)c(=O)[nH]1,-7,-21,1,4,-2,-10,i,-8
COc1ccc(-c2cc(=O)c3cc(OC)c(OC)cc3[nH]2)cc1,-2,-2,0,4,-7,-4,i,-24
CCOc1ccc(Cl)cc1-c1cc(C(=O)NCCOC)[nH]n1,nt,nt,-1,-1,21,nt,nt,-15
CC(C)Oc1ccc(Br)cc1/C=N\NC(N)=S,1,-31,6,-16,nt,-8,i,-29
Cc1ccc2c(c1)N(S(=O)(=O)c1cc(-c3cc(C)no3)ccc1C)CCO2,-6,27,1,-18,2,-12,i,1
Cc1ccc(CNC(=O)c2ccc(N3CCC4(CC3)CC(c3ccccc3)=NO4)c(NC(=O)c3ccccc3)c2)cc1,nt,-10,-2,-1,-6,nt,i,-8

Source: PubChem
